Screens as filed in PubChem.
D2 agonist: activates the human D2 dopamine receptor; 360,000 compounds, 0.084% hits; DiscoveRx PathHunter D2 beta-arrestin, luminescence, 90 min; 100% = 57 uM dopamine signal; activation, % (no concentration beside the values); in the data active = activation above about 40%; inconclusive = about 15% to 40%; inactive = below about 15%; note: compound concentration not given in the record; the text of the record calls up to 30% inactive
Target sequence (P14416 whole entry, looked up): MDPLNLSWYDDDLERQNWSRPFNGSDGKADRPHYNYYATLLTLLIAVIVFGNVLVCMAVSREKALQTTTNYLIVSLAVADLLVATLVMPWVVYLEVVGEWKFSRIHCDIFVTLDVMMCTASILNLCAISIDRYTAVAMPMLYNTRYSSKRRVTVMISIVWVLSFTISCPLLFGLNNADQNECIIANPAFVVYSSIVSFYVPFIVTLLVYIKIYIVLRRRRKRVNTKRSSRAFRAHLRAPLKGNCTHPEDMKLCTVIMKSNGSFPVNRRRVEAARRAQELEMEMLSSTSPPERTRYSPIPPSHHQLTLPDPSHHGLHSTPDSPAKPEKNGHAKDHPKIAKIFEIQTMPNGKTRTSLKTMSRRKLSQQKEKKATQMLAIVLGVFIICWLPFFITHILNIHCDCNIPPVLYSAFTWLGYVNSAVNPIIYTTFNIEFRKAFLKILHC
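Agonist mode: compounds alone added to overnight-plated D2 PathHunter cells for 90 min at 37 C, with 57 uM final dopamine (EC100) defining full response. Beta-arrestin recruitment detected by chemiluminescent reagent, read after 1 h at ambient temperature.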
Six1-Eya2 inh: inhibitors of human Six1/Eya2 interaction; Q15475+O00167; AlphaScreen GST-Six1/His-Eya2 binding, biochemical; hits give low values; control for the full effect not named in the record; activity change, % (concentration not given with the values); 360,000 compounds, 0.56% hits; in the data active = activity change below about -65%; inconclusive = about -30% to -65%; inactive = above about -30%; note: % is set by controls: 0 for no effect and ±100 for the full control effect
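AlphaScreen with GST-Six1 and His-Eya2 (5X mix: 250 nM and 500 nM), glutathione donor and nickel acceptor beads; buffer 50 mM Tris pH 8.0, 300 mM NaCl, 1 mM TCEP; 1 h at 37 C in the dark.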
TRPML1 agonist: activates the human TRPML1 channel. AID 624414. 410,000 compounds, 0.12% hits. TRPML1-expressing cells, Ca2+ dye fluorescence, FDSS; host cell line not named in the record; reference of the full effect not given here. activation, % (no concentration beside the values); in the data active = activation above about 50%; inconclusive = about 30% to 50%; inactive = below about 30%; note: 0% is about no effect; the text of the record puts the active cut at 80%
Target sequence (Q9GZU1 whole entry, looked up): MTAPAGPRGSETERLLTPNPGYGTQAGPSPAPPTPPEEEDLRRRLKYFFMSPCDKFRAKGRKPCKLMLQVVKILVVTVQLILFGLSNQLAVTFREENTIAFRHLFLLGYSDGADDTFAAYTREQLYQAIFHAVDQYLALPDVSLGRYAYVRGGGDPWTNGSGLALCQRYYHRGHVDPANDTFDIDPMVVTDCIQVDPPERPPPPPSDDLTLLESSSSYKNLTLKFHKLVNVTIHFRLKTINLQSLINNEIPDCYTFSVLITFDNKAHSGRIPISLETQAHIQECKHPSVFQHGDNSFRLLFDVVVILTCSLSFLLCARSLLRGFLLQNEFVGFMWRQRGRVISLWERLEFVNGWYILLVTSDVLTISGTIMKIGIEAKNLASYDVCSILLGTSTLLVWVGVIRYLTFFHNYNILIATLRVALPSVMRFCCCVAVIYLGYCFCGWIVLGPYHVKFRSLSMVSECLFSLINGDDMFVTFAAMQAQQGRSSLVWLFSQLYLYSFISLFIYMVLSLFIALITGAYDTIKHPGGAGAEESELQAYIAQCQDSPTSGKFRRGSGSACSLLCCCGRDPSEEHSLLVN
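Calcium fluorescence on an FDSS kinetic reader gave the read-out. Tet-induced TRPML1-DL cells were plated overnight, dye-loaded (Ca8 with quencher, 45-90 min, room temperature, dark), then read 110 s after compound addition, and again 110 s after 4uM final 54-4 (EC80).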
PINK1 modulator: changes PINK1 expression; PINK1 immunofluorescence, high-content cytometry, 24 h; Potency, µM (titrated, usually from 76.6 µM), for inactives: top-dose activation (PINK1 increase), actives largely listed as activators; AID 624263; 410,000 compounds, 0.2% hits; active = well fitted activation curve with a large enough effect; inconclusive = small, poorly fitted or top-dose-only effect; inactive = flat fitted curve, though single readings scatter; cell line not stated here;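 note: potency is the fitted concentration of half-maximal effect; % of control where 0% means no effect; nearly all actives have a fitted effect of over 65% in size; a mitochondrial uncoupler was the plate control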
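A stable cell line was treated with compounds at 5 concentrations for 24 hours, with CCCP as control. PINK1 levels and mitochondrial localization were measured by immunofluorescence with mitochondrial, cell and nuclear markers after fixation, read by laser-scanning cytometry.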
TRPML1 inh: human mucolipin-1 channel inhibition; TRPML1-inducible cells, Ca2+ dye fluorescence, FDSS; hits give low values; inhibition of EC80 agonist-evoked calcium signal; 390,000 compounds, 0.02% hits; Q9GZU1; activity change, negative = inhibition, % (concentration not given with the values); in the data active means activity change below about -50%; inconclusive means about -30% to -50%; inactive means above about -30%;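 note: stimulus is agonist 54-4 at its EC80 concentration; % is set by controls: 0 for no effect and ±100 for the full control effect; the text of the record puts the active cut at -80%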
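TRPML1-DL cells, Tet-induced overnight (~16 h, 37 °C) at 1,500 cells/well, were loaded with Ca8 no-wash dye plus quencher for 45-90 min at room temperature. Compounds were pinned during FDSS kinetic reading; agonist 54-4 at EC80 (4 uM final) then added.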
CtBP-E1A inh: CtBP/E1A binding inhibition | 340,000 compounds, 0.49% hits | activity change, % (no concentration beside the values) | AlphaScreen GST-E1A/His-CtBP binding, 1536-well; hits give low values; control for the full effect not named in the record; in the data active means activity change below about -65%; inconclusive means about -30% to -65%; inactive means above about -30%; note: % is set by controls: 0 for no effect and ±100 for the full control effect
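Homogeneous bead-based format: GST-tagged E1A captured on glutathione donor beads, His-tagged CtBP on nickel acceptor beads; compounds precede bead addition by 2 h at 37 °C.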
Active calls of the source: *; ? = inconclusive; . = no result given; [ ] = dose if it differs, or a comment. Compounds were not picked by outcome; overall some 1% were active at least once.

compound	D2 agonist	Six1-Eya2 inh	TRPML1 agonist	PINK1 modulator	TRPML1 inh	CtBP-E1A inh
COc1ccc(Cl)cc1NC(=S)N(Cc1ccccc1C)CC1CCC(C(=O)O)CC1 (stereo not drawn)	0.6	-8.5	0.3	-2.0%	24.1	-1.4
Cc1[nH][nH]c(=O)c1C=NCc1ccc(Cl)cc1	1.6	0.3	-0.7	-0.6%	5.8	.
S=C(Nc1ccccc1)Nc1ccc(OCc2ccccc2)cc1	-0.7	1.6	-0.6	.	-17.5	1.8
Cc1nc(N2CCN(Cc3ccc4c(c3)OCO4)CC2)[nH]c(=O)c1C	-0.9	-3.5	1.8	-1.3%	-2.3	-2.6
O=C(OCC1CC(c2ccccc2)=NO1)c1ccc(Cl)cc1 (stereo not drawn)	0.0	4.7	2.3	.	15.3	-4.0
COc1ccc(-c2nnc(SCC(=O)Nc3cccc(C(F)(F)F)c3)s2)cc1	.	.	3.1	12.1%	7.9	.
CCOC(=O)[C@@H]1[C@H]2COc3ccccc3[C@@H]2N2C(=O)N(c3cccc(Cl)c3)C(=O)[C@]12C	-1.1	1.5	2.9	3.5%	11.4	-13.8
COc1ccc(CNC(=O)[C@H](C)NC(=O)C2CC(=O)N(c3ccc4c(c3)OCO4)C2)cc1 (stereo partly drawn)	-4.2	4.2	-0.3	0.6%	-0.3	-9.0
CCOC(=O)c1noc2ncn(CC(=O)Nc3cc(Cl)ccc3OC)c(=O)c12	.	.	0.4	0.3%	-9.6	.
COc1ccccc1NCCC(=O)OCC(=O)NC1CC1	0.4	-4.9	-0.5	2.8%	-6.4	.
Cc1ccc(C2NC(=O)c3c(sc4c3CCN(C)C4)N2)s1 (stereo not drawn)	3.0	-9.5	4.4	-4.4%[38.3 µM]	-2.4	-23.0
O=C(CCSc1ccc(Cl)cc1)Nc1cccnc1	-2.2	-2.8	1.4	3.7%	-10.9	.
C/C(=N\Nc1cc(C)nc(-c2ccccc2)n1)c1cccc([N+](=O)[O-])c1	-9.4	?	0.8	5.5%	51.3	?
COC(C[C@H]1O[C@H]1[C@H](O)[C@@H](C)OCc1ccccc1)OC	-0.2	3.7	0.4	0.3%	-2.4	0.0
CCOC(=O)CN1C(=O)S/C(=C\c2ccc(-c3cccc(C(=O)O)c3C)o2)C1=O	5.8	-3.4	0.8	-1.3%	-13.2	3.5
O=C(CN(CC1CCCO1)S(=O)(=O)c1ccc(S(=O)(=O)NC2CC2)cc1)Nc1ccccc1 (stereo not drawn)	-1.8	-0.9	-0.3	1.3%	10.8	3.2
CC1CCN(C(=O)CCNC(=O)Cn2cnc3sc4c(c3c2=O)CCCC4)CC1	-1.0	-0.8	2.8	-2.5%	-14.6	-14.8
O=C(COc1ccccc1-c1nnc(-c2ccccc2)o1)Nc1ccc(Br)cc1F	.	.	0.5	1.1%	6.9	.
Oc1ccc(/C=N/NC(=S)N/N=C/c2ccc(O)cc2)cc1	11.2	?	.	1.6%	.	-66.7*
O=C(CS(=O)(=O)Cc1ccccc1)Nc1ccc(Br)cc1F	-2.6	1.4	0.2	4.5%	-9.5	6.0
CN(C)c1ccc(/C=C/c2c([N+](=O)[O-])c(=O)n(C)c(=O)n2C)cc1	0.9	-0.6	1.8	0.6%	-11.7	-14.5
COc1ccc2[nH]cc(C(=O)CCl)c2c1	3.0	-1.8	1.5	-1.2%	5.9	2.5
Cc1nc2sc(-c3ccccc3)cc2c(=O)n1N	-3.4	0.7	0.1	5.2%	-21.5	-18.3
COc1ccc(-c2nnc(SCC(=O)N3CCN(c4ccccc4)CC3)o2)cc1OC	-4.0	6.1	0.8	0.1%	22.3	0.0
CCCOC(=O)c1c(NC(=O)C2c3ccccc3Oc3ccccc32)sc2c1CCC(C)C2 (stereo not drawn)	.	.	2.2	0.1%	0.1	.
Cc1ccc(-c2cc(-c3ccc(C)cc3O)[nH]n2)cc1	5.1	2.4	.	?	.	.
Cn1cc(Br)c(C(=O)N2CCN(c3cccc(Cl)c3)CC2)n1	7.0	-0.4	0.5	0.4%	4.8	1.4
CCc1ccc(C(=O)NC(=S)Nc2ccccc2N2CCOCC2)cc1	-4.3	-21.9	0.8	2.5%	6.1	?
CC1CCCC(C)N1C(=O)COC(=O)CNC(=O)C12CC3CC(CC(C3)C1)C2 (stereo not drawn)	-3.3	8.2	-0.5	-0.3%	0.6	6.3
CCCc1ccc2oc(C(=O)N(C)CCn3ccnc3C)c(C)c2c1	-4.3	-1.0	-0.6	-1.8%	11.4	.
O=C(N/N=C/c1ccc(-c2cccc([N+](=O)[O-])c2)o1)[C@H]1C[C@@H]1c1ccccc1	-1.1	-17.8	2.9	12.7%	19.1	-3.4
COC(=O)c1ccccc1NC(=O)c1ccc(Cn2cc(Cl)cn2)o1	-3.1	-1.5	-0.3	0.8%	-3.3	0.1
COc1cc(C(=O)N[C@@H](Cc2c[nH]c3ccccc23)C(=O)O)cc(OC)c1OC	3.7	2.7	-0.7	2.3%	1.4	0.9
CC(C)(C)C1CCC(OC(=O)C[N+]2(C)CCCC2)CC1 (stereo not drawn)	-2.7	4.8	-0.1	0.6%	-13.5	19.0
Nc1cc(=O)[nH]c(SCC(=O)Nc2cccc(Cl)c2Cl)n1	-4.8	-7.8	0.5	0.0%	-0.2	.
O=C(Cc1ccc(NS(=O)(=O)c2cccc(C(F)(F)F)c2)cc1)NCCN1CCOCC1	-3.0	-1.9	-0.3	0.0%	18.6	1.4
Cc1cc(C)cc(NC(=O)c2ccc(CN3CCc4ccccc4C3)cc2)c1	1.2	-7.1	1.9	-0.3%	0.1	-1.5
Cn1c(=O)[nH]c(=O)c2c1nc(SCCCO)n2CCCc1ccccc1	-5.2	0.6	-0.1	3.5%	-6.7	-4.1
COc1cccc2cc(C(=O)c3ccccc3)oc12	-3.7	1.8	0.5	-0.1%	-5.4	-2.9
O=C(c1ccc2c(c1)OCCO2)C1CCN(C(=O)c2ccc(F)cc2)CC1	-3.1	-3.4	0.2	7.4%[38.3 µM]	51.8	2.8
O=C(Nc1nc2ccccc2[nH]1)c1ccc(Cl)c([N+](=O)[O-])c1	-2.5	-4.8	-0.9	4.0%	-8.4	0.7
Cc1csc(NC(=O)c2ccccc2O)n1	0.1	1.9	0.4	6.3%	-2.2	-4.3
O=C(NC(=S)NNC(=O)c1ccccc1O)c1ccco1	-5.8	-90.6*	0.1	?	19.5	-6.9
CC1CCN(S(=O)(=O)c2ccc3ncn(CC(=O)N4CCN(C)CC4)c(=O)c3c2)CC1	-4.5	-2.1	0.8	-0.8%	-0.6	0.7
CC(=O)Nc1cccc(C(=O)OCC(=O)N2CCN(C(=O)COC(=O)c3cccc(NC(C)=O)c3)CC2)c1	1.2	-9.2	0.8	12.8%	13.6	-1.9
CSc1nc(-c2ccc(Cl)cc2)c(C#N)c(=O)n1C	-1.7	11.9	1.5	-0.5%	5.1	8.7
O=C(CSc1cn(CCNC(=O)c2cccc(C(F)(F)F)c2)c2ccccc12)Nc1ccc2c(c1)OCCO2	.	.	0.4	0.9%	-6.4	.
Nc1ccc2nc(-c3cc(Cl)c(N)c(Cl)c3)[nH]c2c1	-1.7	-3.3	1.8	?	-0.4	-5.4
Cc1ccc(N(Cc2ccccc2)C(=O)c2cc(S(=O)(=O)N3CCOCC3)ccc2Cl)cc1	-3.6	-4.4	1.4	1.1%	36.0	-7.8
COc1cccc(-c2csc(N3CCN(S(=O)(=O)c4ccc(F)cc4)CC3)n2)c1	-0.4	-6.3	0.9	?	1.7	3.0

(more compounds)
compound	D2 agonist	Six1-Eya2 inh	TRPML1 agonist	PINK1 modulator	TRPML1 inh	CtBP-E1A inh
C[C@]1(C(=O)NCCc2c[nH]c3ccccc23)C=C[C@@H](Cc2ccccc2)N1C(=O)c1ccccc1	-3.4	-10.1	0.6	-0.4%	-20.0	.
O=C(NCCCN1CCOCC1)NC1CCCCC1	-0.6	33.3	0.1	-0.4%	10.1	0.0
Cc1ccc(S(=O)(=O)N2C[C@@H]3[C@H]4CC[C@H](C4)[C@@H]3[C@@H](C)[C@H]2c2ccn(Cc3ccccc3)c2)cc1	1.1	-23.8	0.0	2.1%	21.6	6.9
CC1(C)C2CCC1(C)C1(C2)NC(=O)c2ccccc2O1 (stereo not drawn)	2.4	-17.6	0.0	8.0%	0.7	0.6
O=C(Nc1cc(Cl)ccc1N1CCCCC1)c1cccs1	-1.6	4.8	0.7	1.0%	15.5	4.8
COc1cc(/C=N/NC(=O)c2ccc(Cl)c(S(N)(=O)=O)c2)ccc1OCC(N)=O	0.9	-19.6	0.4	1.0%	-16.5	-27.8
CCOC(=O)c1ccc(NC(=S)N(CCCN2CCN(C)CC2)Cc2cccs2)cc1	-3.3	-0.9	3.3	0.7%	1.0	0.9
COc1ccc(CNC(=O)c2ccc(=O)oc2)cc1OC	-0.2	2.5	1.6	0.8%	20.1	-1.3
CC(C)CC(=O)N=Nc1c(O)[nH]c2ccccc12	-1.2	-2.9	0.2	0.4%	-11.8	0.1
CCC1CN(C(=O)N2CCC(C(=O)NCCN(CC)CC)CC2)c2cc(C)ccc2O1 (stereo not drawn)	.	.	0.5	-0.3%	-5.6	.
CCNC(=O)N1CCN(S(=O)(=O)c2ccc3c(c2)OCCCO3)CC1	1.0	3.8	-1.1	0.7%	-5.1	.
CC#CCN1c2ccccc2[C@]23C[C@@H](C(=O)OC)N(C(=O)c4ccco4)C2=NC(C(=O)OC)=C(C(=O)OC)[C@H]13	-3.1	-28.2	0.2	3.4%	-3.6	-8.5
CC(C)CCNC(=O)C1CC(c2cccc(F)c2)=NO1 (stereo not drawn)	-3.2	10.1	-0.1	-1.0%	2.2	5.5
CCSc1ccc(-c2nn(-c3ccccc3)cc2/C=C(/C#N)C(=O)NCCCOC)cc1	0.2	6.9	0.0	12.1%	14.5	9.4
Cc1cc(C)cc(NC(=O)Cn2c(=O)n(-c3cc(C)cc(C)c3)c(=O)c3oc4ccccc4c32)c1	.	.	0.0	1.2%	4.7	.
